# Source: PubChem BioAssay
# Env fusion inh – blocks HIV Env-driven cell-cell fusion. HeLa-JRFL Env/CEM21 cell fusion, luciferase. inhibition, % at 12.3 µM. actives 1.1% (n = 360,000);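 active = mean replicate inhibition score of at least 50 and every replicate individually at or above 50; inconclusive = only one of the two criteria met; inactive = mean below 50 and not all replicates reaching 50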;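 note: 0% = plate neutral controls and 100% = maraviroc near 300 nM; one replicate is shown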
# MT1-MMP act inh – blocks activation of human MT1-MMP | AID 651647 | HT1080 RFP-PRO-GFP cells, GFP/RFP ratio fluorescence, overnight; percent of plate control window, DMSO zero | GFP/RFP ratio change, % at 20 µM | P50281 | actives 0.061% (n = 360,000);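 active = GFP/RFP ratio change of at least 30% with cell ATP level not reduced by more than half and red fluorescence within 50% of control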; note: strong numbers were not always called active
#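 Test system: HT1080 RFP-PRO-GFP cells; Benchmarks: DMSO and RFP-L50D-GFP cell wells; Timing: cells overnight before dosing, compound overnight, 37 °C, 5% CO2; Compound: one 20 µM compound dose with 1% DMSO; Read-out: GFP/RFP fluorescence ratio.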
# eIF4H FP inh – inhibitors of RNA binding by human eIF4H | Q15056 | eIF4H fluorescence polarization binding assay | inhibition, % at 35 µM | actives 0.94% (n = 290,000);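 active = 50% or more with normal probe brightness, or confirmed in later tests; inconclusive = above 50% with abnormal brightness, or retests that disagree; inactive = below 50% or failed in later tests; about a fifth of its hits are not listed in these tables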;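 note: calls also rest on retests at 20 µM and on dose response follow-up; 0% = protein and probe with vehicle and 100% = probe without protein; strong numbers were not always called active; many hits fall short of the cut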
# CSC inhib – cancer stem cell inhibition; cancer stem cell-like cells viability, luminescence; inhibition, % at 7.5 µM; actives 1.1% (n = 300,000);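 active = mean at 75% or more and at least half the replicates too; inconclusive = mean and replicates disagree; tested in HMLE shEcad cells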;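 note: 0% = median of negative and 100% = median of positive control wells; the first replicate is given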
# PABP polyA inh – blocks human PABP binding to poly(A) RNA. P11940. fluorescence polarization. inhibition, % at 35 µM. actives 1% (n = 290,000);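 active = 50% or more with normal probe brightness, or confirmed in later tests; inconclusive = above 50% with abnormal brightness, or retests that disagree; inactive = below 50% or failed in later tests; about a fifth of its hits are not listed in these tables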;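 note: calls also rest on retests at 20 µM and on dose response follow-up; controls were probe without protein and protein plus probe with vehicle; some compounds called inactive have numbers as strong as hits; many hits fall short of the cut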
# Target sequence (P11940 whole entry, looked up): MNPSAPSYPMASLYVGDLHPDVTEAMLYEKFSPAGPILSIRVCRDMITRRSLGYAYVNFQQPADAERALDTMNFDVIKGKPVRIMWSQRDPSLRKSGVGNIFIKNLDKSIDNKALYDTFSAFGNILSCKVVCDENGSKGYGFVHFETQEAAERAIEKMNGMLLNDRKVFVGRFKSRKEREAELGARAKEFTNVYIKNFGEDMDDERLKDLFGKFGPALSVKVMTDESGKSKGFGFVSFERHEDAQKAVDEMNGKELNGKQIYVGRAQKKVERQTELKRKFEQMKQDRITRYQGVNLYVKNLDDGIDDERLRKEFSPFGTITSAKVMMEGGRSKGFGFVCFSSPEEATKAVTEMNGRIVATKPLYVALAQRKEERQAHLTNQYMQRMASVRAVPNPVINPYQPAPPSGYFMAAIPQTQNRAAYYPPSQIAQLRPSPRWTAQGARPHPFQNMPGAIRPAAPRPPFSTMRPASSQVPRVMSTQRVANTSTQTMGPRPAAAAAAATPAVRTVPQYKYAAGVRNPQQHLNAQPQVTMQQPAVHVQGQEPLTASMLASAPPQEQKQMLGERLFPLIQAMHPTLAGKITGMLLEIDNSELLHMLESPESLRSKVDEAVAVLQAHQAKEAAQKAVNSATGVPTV
# UUG fidelity – alters start codon recognition fidelity in yeast. actives 0.13% (n = 350,000). activity score, % at 18.7 µM. S. cerevisiae UUG-firefly luciferase reporter, luminescence/redox ratio;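 active = replicate mean at a twofold rise or more, about +100% in these data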;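 note: firefly luciferase made from a UUG start codon reports start codon fidelity; reporter light over untreated wells divided by growth signal over untreated wells; some hits fall short of that in this replicate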
# Rce1 inhib – yeast Ras-converting enzyme inhibition. yeast membranes, quenched prenylated peptide cleavage fluorescence. calls only. actives 0.27% (n = 290,000);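 active = fall in fluorescence gain of 50% or more versus controls, with final raw signal at or below 3038400; inconclusive = same 50% fall but final raw signal above 3038400; inactive = fall in fluorescence gain under 50%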;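 note: plate controls were neutral control wells for no effect and wells lacking membranes for full effect; tested at 10 µM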
# Target sequence (Q03530 whole entry, looked up): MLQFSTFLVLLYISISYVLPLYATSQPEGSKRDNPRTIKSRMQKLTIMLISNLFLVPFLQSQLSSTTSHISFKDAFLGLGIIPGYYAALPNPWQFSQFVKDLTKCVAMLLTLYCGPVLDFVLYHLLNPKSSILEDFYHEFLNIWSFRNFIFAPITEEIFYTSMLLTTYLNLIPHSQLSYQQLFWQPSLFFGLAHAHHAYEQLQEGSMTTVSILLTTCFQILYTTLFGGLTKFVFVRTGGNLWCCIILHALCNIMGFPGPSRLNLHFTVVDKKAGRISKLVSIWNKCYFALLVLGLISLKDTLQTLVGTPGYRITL
# eIF4H FP inh retest – also measured in eIF4H FP inh; calls as there; inhibition, %; compound at 20 µM; confirmation average;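 mean of two retest wells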
# PABP polyA inh retest – also measured in PABP polyA inh; calls as there; inhibition, %; compound at 20 µM; confirmation repeats;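 mean of two retest wells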
# MT1-MMP act inh RFP – further read-out of MT1-MMP act inh, marked with its call; RFP signal change, %; measured here: RFP expression control read;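 0 = vehicle wells; hits needed this value within 50% of zero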
# * marks the source's active call; other numbers are inactive results; i = inactive; ? = inconclusive; nt = no result given; & = joins results of further samples; [ ] = dose if it differs, or a comment.
SMILES,Env fusion inh,MT1-MMP act inh,MT1-MMP act inh RFP,eIF4H FP inh,CSC inhib,PABP polyA inh,UUG fidelity,Rce1 inhib,others
COc1ccc(S(=O)(=O)NCC2CCCN(C(=O)CCSC)C2)cc1 (stereo not given),11,-2,1,-11,-8,-3,8,i,
Cc1ccc(OCCCC(=O)Nc2cc(Cl)ccc2-n2cncn2)cc1,-8,0,-1,nt,-1,nt,nt,i,
COc1ccc(NC(=O)c2cc(-c3ccccc3)nc3c2c(C)nn3-c2ccccc2)c(OC)c1,24,0,3,2,-9,3,nt,i,
COc1ccc(-c2c(-c3ccc(OC)cc3O)nc(C)nc2C(F)(F)F)cc1,7,-4,2,-6,-5,-5,-32,i,
O=C(CSCc1nc2scc(-c3cccs3)c2c(=O)[nH]1)Nc1ccccn1,-4,-2,4,0,-7,6,-18,i,
C=CCN1C(=O)C(C)(C)Nc2ccccc21,-20,-3,5,-3,-6,26,-3,nt,
Cc1cc(C(=O)OCC(=O)Nc2ccc(F)c(F)c2)c(C)o1,-19,-1,-1,0,-7,4,8,i,
COc1cccc2cc(NC(=O)C3CCCCC3)c(=O)oc12,-217,15,2,-5,-5,-1,-2,i,
CN(Cc1ccc(F)cc1)C(=O)COc1ccc2ccccc2c1,2,4,3,-3,-8,12,-12,i,
Cn1c(SCc2cccc([N+](=O)[O-])c2)nc2c(c1=O)SCC2,31,-10,-25,3,9,1,nt,i,
COc1ccc(CC(N)c2csc(Nc3cc(Oc4ccccc4)ncn3)n2)cc1 (stereo not given),-9,-1,-6,nt,nt,nt,-14,nt,
O=C(Nc1ccccc1)c1cccc(S(=O)(=O)NC2CCCC2)c1,5,3,-11,-3,4,-5,-10,i,
O=C(O)c1cc(S(=O)(=O)N2CCCCCC2)ccc1Cl,-65,2,6,-4,-12,7,-10,i,
CC(=O)N/C(=C/c1ccc2c(c1)OCO2)C(=O)N1CCOCC1,11,-2,2,-4,-6,-1,-13,i,
O=S(=O)(NNC(=S)NCC1CCCO1)c1cc(Cl)ccc1Cl (stereo not given),1,0,2,3,-5,-3,-4,i,
C/C(=N\NC(=O)c1csc2ccccc12)c1ccc(O)cc1,nt,-2,5,0,7,4,-13,i,
CCCCn1c(SCC(=O)NCc2cccs2)nc2c1c(=O)n(C)c(=O)n2C,4,4,4,-14,-1,-5,0,i,
COc1ccc2oc(=O)c(/C(N)=N/NC(=O)c3ccncc3)cc2c1,-41,-3,0,-4,nt,?,-22,i,
CCOC(=O)C1=C(N)N(c2ccc(C)cc2)C2=C(C(=O)CCC2)C1c1cccs1 (stereo not given),13,-2,-1,2,-9,5,16,i,
Cc1ccc(C2=CC(c3cccs3)n3nnnc3N2)cc1 (stereo not given),-205,-75,3,0,-2,2,-14,i,
CCN(CC(=O)Nc1c(F)cccc1F)C(=O)CSCC(=O)Nc1cccc(C)c1,-2,1,1,nt,1,nt,0,i,
CC(=O)Nc1ccc(S(=O)(=O)N2c3ccccc3C(C)=CC2(C)C)cc1,-113,2,-11,-10,47,-7,nt,i,
Cc1ccc(-c2csc(C(O)c3ccc(F)cc3)n2)cc1C (stereo not given),24,2,0,nt,nt,nt,-18,nt,
Cc1ccc(C)c(NC(=O)CN(C)C(=O)COc2cccc3c2OC(C)(C)C3)c1,7,2,5,nt,-13,nt,9,i,
CCCCN(C(=O)c1cccc(S(=O)(=O)N2CCOCC2)c1)c1c(N)n(CCC)c(=O)[nH]c1=O,10,-2,3,13,-9,52*,nt,i,eIF4H FP inh retest=-12;PABP polyA inh retest=91*
COc1ccc2[nH]c(C(=O)N3CCC(CO)(Cc4cccc(C(F)(F)F)c4)CC3)c(C)c2c1,30,-4,-9,-12,12,-7,13,i,
CCO[C@H]1OC(C(N)=O)=C[C@@H](C2CCCCC2)[C@@H]1CCCO,-4[16.7 µM],2,9,-4,-20,0,0&-2,i,
CCOC(=O)c1ccc(Oc2nc(SC)nc(N(C)C)n2)cc1,nt,2,2,-3,-1,-4,-8,i,
COc1ccccc1C(=O)N1c2ccccc2Sc2ccccc21,19,-9,-14,2,27,-2,6,i,
CCOC(=O)N1CCC2(CC1)C(C#N)=C(N)OC1=C2C(=O)CCC1,10,2,8,1,-7,0,-7,i,
Oc1cncc(Cc2ccccc2)c1,16,2,-4,3,-6,-5,-26,i,
O=C(Nc1cccc(S(=O)(=O)NC2=NCCCCC2)c1)C1COc2ccccc2O1 (stereo not given),7,1,-2,-1,-5,-1,nt,i,
COC(=O)Nc1nc2c(s1)CCCC2,-67,17,1,-4,1,1,-13,i,
O=C(/C=C/c1ccc(S(=O)(=O)N2CCOCC2)cc1)N1CCN(c2ccc(F)cc2)CC1,23,-5,-23,-7,-1,-1,nt,i,
CCCCn1c(C)nc2cc(S(=O)(=O)N3CCOCC3)ccc21,nt,-3,-3,nt,-14,nt,-7,nt,
COc1cc(C(C(=O)NC2CCCCC2)N(Cc2cccs2)C(=O)Cc2c[nH]c3ccccc23)cc(OC)c1OC (stereo not given),-18,-15,-5,-3,-9,5,-14,i,
Cc1cccc(C(=O)N2CCc3cc(-c4nc(NC(=O)Cn5nnc6ccccc6c5=O)sc4C)ccc32)c1,nt,nt,nt,3,5,-2,nt,i,
O=c1c2[nH]c3ccccc3c2nc2n1CCCS2,8,4,1,-2,-15,-18,-9,i,
CSCCC(NC(=O)c1ccc(Cl)cc1Cl)C(=O)NNC(=O)c1csc(N2CCOCC2)n1 (stereo not given),-33,2,3,11,-2,0,-17,i,
COc1ccccc1N1C(=O)c2cccnc2C1=O,8,-3,-3,3,-18,-14,-2,i,
COC(OC)c1ccnc(SCc2ccccc2Cl)n1,-12,-1,-5,2,10,-6,nt,i,
O=C(O)CSc1nnc(NC(=O)c2ccc3c(c2)OCO3)s1,5,1,5,2,-16,-4,nt,nt,
Cc1ccc(C(=O)NNC(=O)c2cc(C)nc3ccccc23)cc1,-9,-2,0,nt,nt,nt,-17,nt,
Cc1ccc(NC(=O)c2ccc(F)cc2F)cc1NS(C)(=O)=O,-6,4,-4,-9,-6,-10,-6,i,
CCc1nnc(NC(=O)C(C)C)s1,3,2,0,-3,-1,-6,-7,nt,
COc1ccc(C(O)(CCc2ccccc2)CCN2CCCCC2)cc1 (stereo not given),-1,0,4,-10,14,-5,-2,i,
O=C(Nc1ccccc1)Nc1ccc(C(=O)N2CCCC2)cc1,16,0,2,-3,51,-16,nt,i,
CNC(=S)Nc1cccc([N+](=O)[O-])c1,-9,-1,0,-1,-13,2,-9,i,
CN(CC(=O)Nc1ccccc1Cl)C(=O)CSc1nnc(-c2ccco2)o1,14,-2,3,-3,-7,25,-3,i,
CCN(CC)CCCNC(=O)Cn1nc([N+](=O)[O-])c(Cl)c1C,8,-3,2,0,-10,7,-6,i,
COc1ccc(OC)c(NC(=O)Cn2cccc2)c1,nt,19,5,4,0,2,nt,i,
O=C(CSc1nccc(=O)[nH]1)Nc1cccc2ccccc12,-1,0,2,-8,-14,9,-9,i,
CSCCC(NS(=O)(=O)c1ccc2c(c1)oc(=O)n2C)C(=O)NCc1ccc(C)cc1 (stereo not given),7,2,0,-4,-2,-1,nt,i,
CCCCn1c(SCC(=O)NNC(=O)c2ccco2)nnc1-c1ccco1,11,3,6,-10,2,-16,nt,i,
CCOC(=O)CN=C(NS(=O)(=O)c1ccc(Cl)cc1)c1ccccc1,-3,3,3,-5,7,-4,nt,i,
CCCOc1cccc(C2C(C(=O)c3cccs3)=C(O)C(=O)N2CCN2CCOCC2)c1 (stereo not given),-7,-2,1,-9,nt,1,-16,i,
CC(=O)NC1=NC(=O)/C(=C/c2cc(C)n(-c3ccc(NC(C)=O)cc3)c2C)S1,-24,-29,-9,31,nt,19,9,i,
Cc1ccc(C(C)NC(=O)c2cccs2)cc1 (stereo not given),-3,2,-2,nt,-2,nt,-16,i,
O=C(COc1ccccc1)NCC(=O)N1CCCCCC1,-4,1,1,nt,nt,nt,-6,nt,
O=C(Nc1ccc(O)c(-c2nc3ccccc3s2)c1)C1=COCCO1,-3,2,-4,14,-8,-1,-6,i,

# Continued:
SMILES,Env fusion inh,MT1-MMP act inh,MT1-MMP act inh RFP,eIF4H FP inh,CSC inhib,PABP polyA inh,UUG fidelity,Rce1 inhib,others
Cc1ccc(Cn2c(CN3CC(C)OC(C)C3)nc3c2c(=O)[nH]c(=O)n3C)cc1 (stereo not given),19,2,3,-12,-7,2,8,i,
CCN(CC)S(=O)(=O)c1ccc(N2CCc3ccccc3C2)nc1,-31,0,-3,-4,6,3,-6,nt,
Cc1ccc(CN2CCC(CNC(=O)Nc3ccccc3F)CC2)cc1,-19,-1,-2,-1,1,-2,3,i,
C/C(=N\NC(=O)CSc1nc2ccccc2o1)c1cccc(O)c1,1,4,-2,3,-2,0,-7,i,
O=C(CCS(=O)(=O)c1ccc(Br)cc1)Nc1ccccn1,-7,6,4,27,-5,10,-4,i,
CC(=O)N1CCCN(Cc2cn(-c3cc(C)ccc3C)nc2-c2ccccc2)CC1,15,-2,1,-3,-8,-3,-5,i,
COc1cccc(C(=O)NNC2OC(CO)C(O)C2O)c1 (stereo not given),1,6,6,-4,-27,12,nt,i,
O=C(N/N=C/c1ccc(Br)s1)c1cccnc1,8,0,1,0,9,-2,nt,i,
NC(c1csc(NC(=O)Nc2ccccc2)n1)C1CCCCC1 (stereo not given),57*,-6,0,nt,nt,nt,-8,nt,
COc1cc(CN(C2CCCCC2)S(=O)(=O)c2ccc(S(=O)(=O)N(C)C3CCCCC3)cc2)cc(OC)c1OC,27,-4,-5,15,17,3,-7,i,
CC(=O)Nc1ccc(NC(=O)CSc2nnc(-c3cc(C)[nH]n3)n2N)cc1,14,-1,2,1,-9,-6,-23,i,
Nc1scc[n+]1Cc1cccc2cccnc12,3,-6,0,4,-6,0,-12,i,
Cc1ccc(C2(c3noc(CN(C)Cc4ccccn4)n3)CCCC2)cc1,7,-2,-7,-3,-7,-12,-23,i,
COc1ccc2[nH]c3c(c2c1)CCN1C(=O)C(CC(=O)NCc2ccco2)C[C@H](C(=O)N2CCCCC2)[C@@]31CCc1ccccc1 (stereo not given in full),21,-27,-28,nt,nt,nt,-30,nt,
Cc1ccc2cc(COC(=O)C3CCCO3)c(=O)[nH]c2c1 (stereo not given),nt,0,3,9,-3,19,-6,i,
Cc1ccc2oc(C(=O)NCC3CCOCC3)c(C)c2c1,-7,-1,2,-2,-25,1,-9,i,
O=C(Cc1n[nH]c(=O)[nH]c1=O)N/N=C/c1cccc(O)c1,-12,0,-2,-6,-15,-1,-10,i,
O=C(N/N=C/c1cccnc1)c1cccc(NC(=O)c2ccccc2Cl)c1,9,-1,0,-4,-17,-10,-8,i,
COc1ccc(S(=O)(=O)N2CCOC2CNC(=O)C(=O)NCCCN(C)C)cc1C (stereo not given),21,-4,-2,0,-1,13,6,i,

# The list is partial; rates above refer to the full screens.
